Compound activity (PubChem BioAssay)
LASV entry inh: blocks Lassa virus binding to or entry into cells; Lassa virus pseudotype entry inhibition, cell reporter; control for the full effect not named in the record; Potency, µM (doses to about 37.9 µM), for inactives: at the top dose activity change, negative = inhibition, most hits filed as inhibitors; 300,000 tested, 1.2% active; active means well fitted inhibition curve with a large enough effect; inconclusive means small, poorly fitted or top-dose-only effect, or effect the other way; inactive means flat fitted curve, though single readings scatter; tested in HEK293 cells; further: on the % scale 0 is the no-effect control and ±100 the full control effect; nearly all actives have a fitted effect of over 50% in size; luciferase read-out
Cruzain Triton: blocks cruzain activity in presence of Triton detergent; P25779; purified cruzain, Z-FR-AMC fluorescence, 0.01% Triton; Potency, µM, without a hit: max response, negative = inhibition, hits mostly inhibitors; 200,000 tested, 0.43% active; active means well fitted curve in the direction sought with a large enough effect; inconclusive means small, poorly fitted or top-dose-only effect, or another doubt; inactive means no such curve, though single readings can be large; an effect the other way counts as inactive or inconclusive;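 further: plate controls were neutral wells for no effect and buffer without enzyme for full effect; nearly all actives have a fitted effect of over 40% in size; top concentration of the series not given in the record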
Target sequence (P25779 123-467 limits assumed): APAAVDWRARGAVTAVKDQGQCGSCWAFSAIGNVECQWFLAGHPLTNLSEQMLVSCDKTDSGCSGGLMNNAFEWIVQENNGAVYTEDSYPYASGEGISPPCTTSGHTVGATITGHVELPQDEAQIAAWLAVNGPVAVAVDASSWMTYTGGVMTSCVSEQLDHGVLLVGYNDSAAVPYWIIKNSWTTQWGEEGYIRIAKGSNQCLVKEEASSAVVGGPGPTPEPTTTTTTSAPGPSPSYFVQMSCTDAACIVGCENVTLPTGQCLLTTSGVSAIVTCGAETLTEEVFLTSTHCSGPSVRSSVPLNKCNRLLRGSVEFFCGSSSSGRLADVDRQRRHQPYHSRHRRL
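Enzyme 1.5 nM, Z-FR-AMC 2 uM, NaOAc 100 mM pH 5.5, DTT 5 mM, Triton X-100 0.01%; 15 min RT compound preincubation; kinetic ex360/em450, 60 s delta.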
NS1 function inh: blocks influenza NS1 protein function. S. cerevisiae slowed by influenza A NS1, growth recovery by OD600. AID 2326. 270,000 tested, 0.4% active. Potency, µM (doses to about 46.1 µM), for inactives: at the highest dose activity, positive = more growth; further: actives are rising curves; nearly all actives have a fitted effect of over 50% in size
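Compounds were scored for reversing the slow growth caused by influenza A NS1 in S. cerevisiae, measured by optical density at 600 nm. Assay medium contained 2% galactose at pH 6.0; NS1-free yeast of the same strain were the positive control.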
Marburg entry inh: inhibitors of Marburg virus binding or cell entry. Potency, µM (series often up to 37.8 µM), inactives show at the top dose activity change, negative = inhibition, most hits filed as inhibitors. Marburg virus pseudotyped entry inhibition, cell reporter; control for the full effect not named in the record; about a third of the inactives were read at about 46 µM. 300,000 tested, 1.8% active. AID 540276; active = well fitted inhibition curve with a large enough effect; inconclusive = small, poorly fitted or top-dose-only effect, or effect the other way; inactive = flat fitted curve, though single readings scatter; tested in HEK293 cells; about a fifth of its hits are not listed in these tables; further: on the % scale 0 is the no-effect control and ±100 the full control effect; luciferase read-out
Cruzain inh noDet: cruzain (T. cruzi) inhibition without detergent; P25779; purified cruzain, Z-FR-AMC fluorescence, no detergent; Potency, µM, without a hit: max response, negative = inhibition, actives largely listed as inhibitors; 200,000 tested, 2.3% active; AID 1476; active means well fitted curve in the direction sought with a large enough effect; inconclusive means small, poorly fitted or top-dose-only effect, or another doubt; inactive means no such curve, though single readings can be large; an effect the other way counts as inactive or inconclusive;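 further: plate controls were enzyme without inhibitor for no effect and buffer without enzyme for full effect; nearly all actives have a fitted effect of over 40% in size; top concentration of the series not given in the record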
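Purified cruzain at 1.5 nM, pre-incubated 15 min with compound at room temperature in 100 mM sodium acetate pH 5.5, 5 mM DTT, 0.00005% Triton X-100. Reaction started with 2 uM Z-FR-AMC; AMC fluorescence increase over 60 s gives rate.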
SARS PLpro yeast: SARS-CoV PLP inhibition in yeast; S. cerevisiae expressing SARS-CoV PLpro, growth rescue; control for the full effect not named in the record; Potency, µM (doses to about 32.9 µM), for the others: at the top dose activity, positive = growth rescue; 330,000 tested, 0.19% active; AID 485353; further: 0% is about no effect; nearly all actives have a fitted effect of over 55% in size; growth read by luminescence after 48 h
RE007 growth inh: less growth of the S. pombe RE007 Vpr strain. S. pombe RE007 Vpr strain, BacTiter-Glo ATP luminescence, 24 h; control for the full effect not named in the record. Potency, µM (series often up to 92.2 µM), for the others: top-dose activity change, negative = less growth. 360,000 tested, 0.21% active. AID 651644; active = well fitted falling curve with a large enough effect; inconclusive = small, poorly fitted or top-dose-only effect; inactive = no such curve, though single readings can be large or run the other way;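 further: on the % scale 0 is the no-effect control and ±100 the full control effect; nearly all actives have a fitted effect of over 50% in size; the assay follows cell death caused by Vpr and the record does not say whether a fall means rescue or toxicity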
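Fission yeast strain RE007, carrying one chromosomally integrated HIV-1 vpr copy, was seeded at OD 0.01 in PMG+AL medium with 23 nL pinned compound. After 24 h at 30 °C and 99% humidity, viability was read by BacTiter-Glo luminescence.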
2A StopGo: FMDV 2A StopGo reporter, luciferase signal; human cells with a luciferase reporter of 2A StopGo recoding; control for the full effect not named in the record; Potency, µM (top dose mostly 57.9 µM), for the others: at the top dose signal change, negative = less light; 410,000 tested, 1.2% active; AID 1159524; active = well fitted falling curve with a large enough effect; inconclusive = small, poorly fitted or top-dose-only effect; inactive = no such curve, though single readings can be large or run the other way; tested in HEK293T cells; further: on the % scale 0 is the no-effect control and ±100 the full control effect; nearly all actives have a fitted effect of over 45% in size; luciferase light after 4 h
Numbers without * were called inactive; ? = inconclusive; . = not tested or not shown; [ ] = dose if it differs, or a comment. Unless noted, the call rests on the fitted dose curve; in most records, active means well fitted rising curve with a large enough effect; inconclusive means small, poorly fitted or top-dose-only effect; inactive means no such curve, though single readings can be large or run the other way. Potency means the concentration at half of the fitted maximal effect.

molecule	LASV entry inh	Cruzain Triton	NS1 function inh	Marburg entry inh	Cruzain inh noDet	SARS PLpro yeast	RE007 growth inh	2A StopGo
CC(NC(=O)Nc1ccc(F)cc1F)c1ccc2c(c1)OCO2 (stereo not given)	23%[46.1 µM]	.	14%	?	.	-6%	10%	3%
Cc1ccc(C)c(NC(=O)COC(=O)CCc2ccc(S(=O)(=O)N3CCOCC3)cc2)c1	2%	.	4%	9%[46.1 µM]	.	3%	14%	22%
O=S1(=O)N=C(Nc2ccc(N3CCOCC3)c(Cl)c2)c2ccccc21	?	.	.	?	.	0%	-5%	34%[activator]
CCCCc1ccc(NC(=O)COc2ccc(C(=O)Nc3ccccc3OC)cc2)cc1	.	-5.7%	2%	-1%	-10%	-2%	.	.
Cc1ccc(NC(=O)COC(=O)CCC(=O)c2ccc(Cl)cc2)cc1S(=O)(=O)N(C)C	5%	-6.8%	3%	13%	?	28%	0%	11%
O=C(OC(C(=O)NCc1ccco1)C(OC(=O)c1ccccc1)C(=O)NCc1ccco1)c1ccccc1 (stereo not given)	3%	-2.4%	19%	?	-18%	19%	-7%	-4%
CCN(C(=O)c1cnc(OC)cc1C(F)(F)F)c1ccc(Cl)cc1	?	.	0%	-22%[46.1 µM]	.	1%	1%	-17%
N/C(=N\OC(=O)Cc1ccccc1[N+](=O)[O-])c1ccncc1	20%	-2.8%	-1%	?	1%	-5%	.	-6%
Cc1ccccc1NC(=O)N1CCc2ccccc2C1	-3%[46.1 µM]	.	-4%	8%[46.1 µM]	.	0%	-18%	12%
Cc1cc(C)nc(N/C(=N\S(=O)(=O)Cc2ccccc2)Nc2ccc(F)c(Cl)c2)n1	1%	-5.7%	3%	-8%	?	-11%	16%	19%
COc1ccc(-c2nc(-c3ccncc3)no2)cc1	.	.	-5%	.	.	0%	4%	-1%
COc1ccc(C(=O)NC2CC2)cc1OC1CCN(Cc2ccc(F)cc2Cl)CC1	?	.	.	?	.	.	-14%	0%
COc1ccc(CN2CCN(Cc3cc4ccccc4o3)CC2CCO)cc1C (stereo not given)	?	.	12%	?	.	0%	-7%	1%
CCOC(=O)c1c(-c2ccc(C)c(C)c2)csc1NC(=O)C1CC=CCC1C(=O)O (stereo not given)	-14%	-26%	15%	3%	?	-8%	4%	-20%
CC(C)(C)c1ccc(S(=O)(=O)Nc2ccccn2)cc1	1%	.	-2%	3%[46.1 µM]	.	-1%	-27%	39%[activator]
NC(=O)COC(=O)/C=C/c1ccccc1[N+](=O)[O-]	1%	.	.	-4%[46.1 µM]	.	0%	14%	2%
COc1ccc(-c2cc(C(F)(F)F)nc(SCC(=O)NCCCN3CCOCC3)n2)cc1	17%	.	-3%	-2%	.	0%	-11%	-3%
COc1cc(OC)c(CN2CCC(CO)(CCOc3ccccc3)CC2)c(OC)c1	-8%[46.1 µM]	.	10%	?	.	0%	-6%	-7%
C=CCN1C(=O)C2(/C(=C(\O)c3ccc4c(c3)OCCO4)C(=O)C(=O)N2CCCOC)c2ccccc21 (stereo not given)	-2%	-2.5%	-4%	-1%	15%	-2%	-9%	-8%
CCOC(=O)c1c(C)[nH]c(C)c1C(=O)C(Cc1ccccc1)N(C)C (stereo not given)	.	.	2%	.	.	2%	-7%	14%
CS(=O)(=O)N(CC(=O)N1CCN(c2cccc(Cl)c2)CC1)C1CCCCC1	-1%	-1.8%	-19%	4%	?	-2%	10%	?
O=C(OCC(=O)N1CCCC1=O)c1cccc(S(=O)(=O)N2CCOCC2)c1	10%	.	9%	16%	.	14%	-7%	-10%
COc1cccc(C2CCCN2Cc2nc(CC3CC3)no2)c1 (stereo not given)	-6%	.	-4%	-4%[46.1 µM]	.	-1%	-2%	-7%
COc1ccc(N(CC(=O)Nc2ccccc2C(=O)NCCc2ccccc2)S(C)(=O)=O)cc1OC	-19%	-10%	-4%	-20%	?	1%	-8%	-27%
CSc1nc(N(C)C)c2ccccc2n1	.	.	-7%	1%[46.1 µM]	.	0%	-4%	-13%
COC(=O)c1c(C(=O)OC)c(-c2cccc(C)c2)n2c1CS(=O)C2 (stereo not given)	7%	.	3%	-9%[46.1 µM]	.	1%	7%	24%
COc1ccc(C(NC(=O)/C=C/c2ccco2)c2ccc(OC)c(OC)c2)cc1 (stereo not given)	-24%	-6.9%	?	?	13%	14%	-2%	-10%
O=C(NCc1cccnc1)c1nc(-c2ccc(C(F)(F)F)cc2)no1	-9%	.	.	?	.	1%	-4%	-27%
CSc1nnc(-c2cccn(Cc3ccccc3)c2=O)o1	12%	.	.	?	.	0%	2%	4%
COc1cccc(/C=N/NC(=O)CCC(=O)Nc2ccc(Br)cc2)c1	.	.	5%	.	.	1%	-5%	-8%
O=C(CCN1CCc2ccccc2C(O)(c2ccccc2)C1)c1ccc2c(c1)OCCO2 (stereo not given)	?	.	.	?	.	.	5.6µM*	-11%
CCn1ccnc1CN(C)C(=O)C1CCC(=O)N(Cc2cccc(F)c2)C1 (stereo not given)	.	.	2%	.	.	6%	-3%	-8%
O=C(COC(=O)COc1ccccc1[N+](=O)[O-])Nc1ccccc1Br	?	-7.8%	-56%	?	-7%	-12%	-10%	3%
Cc1ccc(C(=O)Nc2ncccc2C)cc1S(=O)(=O)N1CCCCC1	-1%	.	.	-1%	.	2%	-8%	-7%
CC(=O)N1CCOc2ccc(S(=O)(=O)N(C)c3ccc(C)cc3)cc21	.	.	4%	.	.	9%	-3%	-13%
COc1ccc(C(C(=O)NCc2ccccc2)N(C(=O)c2snc(C(N)=O)c2N)C2CCCC2)cc1 (stereo not given)	2%	.	4%	-8%[46.1 µM]	.	1%	-3%	-4%
O=C1NC2(CCSC2)C(=O)N1CC(=O)N(Cc1ccccc1)C1CCS(=O)(=O)C1 (stereo not given)	-3%	.	-3%	4%	.	1%	21%	-7%
NS(=O)(=O)c1ccc(CCNS(=O)(=O)Cc2ccc(Cl)cc2)cc1	2%[46.1 µM]	.	0%	-1%[46.1 µM]	.	2%	-15%	4%
COc1ccc(-c2[nH]ncc2CN2CCC(OCc3ccccc3)CC2)c(F)c1	-12%[46.1 µM]	.	2%	?	.	0%	0%	-21%
COC(C[C@@H]1O[C@@H]1[C@H](O)COCc1ccccc1)OC	.	.	-3%	.	.	-1%	23%	0%
O=c1nc(N2CCOCC2)nc(N/N=C/c2ccc3c(c2)OCO3)[nH]1	.	.	2%	1%[46.1 µM]	.	2%	2%	11%
Nc1c(-c2ccccc2)cnn1-c1ccc(C(=O)O)cc1	?	5.5%	-7%	?	1%	3%	8%	-44%
O=S1(=O)CCOC[C@H](CC2CCCCC2)N1Cc1ccccc1F	.	.	-22%	.	.	-17%	5%	0%
COC(=O)c1c(NC(=O)c2ccco2)sc(C(=O)N(C)C)c1C	6%	-12%	17%	11%[46.1 µM]	-5%	?	-4%	-16%
Cc1ccc(NC(=O)/C(C#N)=C/c2ccccc2Cl)cc1C	12%[46.1 µM]	-4.7%	.	?	-9%	.	.	-24%
COc1cccc(CC(=O)N(CCC2=CCCCC2)c2c(N)n(Cc3ccccc3)c(=O)[nH]c2=O)c1	12%	.	.	-2%	.	9%	6%	-20%
Cc1cc(C)c(N(C(=O)c2csnn2)C(C(=O)NC2CCCC2)c2ccncc2)c(C)c1 (stereo not given)	18%	.	-9%	-4%[46.1 µM]	.	2%	-4%	-8%
COc1ccc(C(=O)NNC(=S)NC(=O)/C=C/c2cccs2)cc1	-18%[46.1 µM]	.	0%	7%[46.1 µM]	.	-1%	-12%	-19%
COc1ccc(CN2CNc3nc4ccccc4n3C2)cc1	?	-5.5%	11%	0%	-13%	0%	10%[3.69 µM]	-22%
CC(C)(C)c1ccc(C(=O)N/C(=C\c2cccs2)C(=O)NCc2ccco2)cc1	-41%	-13%	-60%	-23%	0%	-6%	-5%	?
CCC(C)C(=O)Nc1nccs1 (stereo not given)	9%	.	-33%	-1%[46.1 µM]	.	10µM*	5%	-18%
CS(=O)(=O)N1CCCC(C(=O)NCc2cccs2)C1 (stereo not given)	?	1.9%	-4%	11%	-5%	5%	-5%	-7%
C=CCn1cnnc1SCC(=O)NCC1COc2ccccc2O1 (stereo not given)	3%[46.1 µM]	.	.	18%	.	1%	-4%	-13%
Cc1cc(NS(=O)(=O)c2ccccc2)n(-c2ccccc2)n1	-10%	1.1%	0%	-9%	-9%	3%	8%	-11%
O=C1CCC(C(=O)N2CCCCO2)CN1Cc1cccc(C(F)(F)F)c1 (stereo not given)	2%	.	-13%	?	.	5%	6%	-1%
CCOc1c(OC(C)=O)ccc(/C=C/c2ccc3cccc(OC(C)=O)c3n2)c1[N+](=O)[O-]	?	-6.7%	-58%	10%	0%	1%	15%	23%
COc1ccc(C2=NN(C(=O)CSc3cn(C)c4ccccc34)C(c3ccc(OC)cc3)C2)cc1 (stereo not given)	.	1.5%	27%	3%	?	1%	6%	-12%
COc1ccc2oc(C(=O)OCC(=O)Nc3ccccc3OC)c(C)c2c1	?	.	.	-13%	.	-26%	6%	-9%
CC(C)Oc1ccc(C(CC(=O)O)NC(=O)Cc2ccccc2)cc1 (stereo not given)	.	.	-3%	.	.	0%	3%	-13%
Cc1nn(C(C)C(=O)NC2CCC(C)CC2)c(=O)c2cc3sccc3n12 (stereo not given)	.	-1.9%	.	-3%[46.1 µM]	2%	.	.	5%
Cn1c(C(=O)N(Cc2ccccc2)Cc2ccccn2)cc2sccc21	1%	-4.4%	-62%	?	8%	2%	-7%	-3%
